motility: Vibrio cholerae motility inhibitors, OD read-out (AID 588778); 10,000 tested, under 10 active; Vibrio cholerae motility, OD read-out; higher % means a stronger effect; test concentration not given here; primary cut-off and reference of the scale not given here; strong numbers were not always called active; inhibition, %; hits with a dose series show IC50 in µg/mL; in the data active = confirmed in a dose series
motility viability: also measured in motility; calls as there; inhibition, %; measured here: bacterial viability at 10 ug/mL;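 higher means fewer living bacteria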
* = called active by the depositor. A portion of the library (hit frequency here may not be typical).

SMILES | motility | motility viability
CCOCCc1nnc(NC(=O)CCSc2ccccc2)s1 | -41% | -9
CCOC(=O)c1[nH]c(C=O)c(Br)c1C | 4% | -3
CC(=O)Nc1ccc(C2C3=C(CCCC3=O)OC3CCCC(=O)C32)cc1 (centres undefined) | -8% | -7
O=C(CSc1nnc2scc(-c3ccc(Cl)cc3)n12)NCc1ccco1 | 16% | 5
O=C(Nc1cccc(NC(=O)c2ccccc2-c2ccccc2C(=O)O)c1)c1nccs1 | -3% | -7
CC(Oc1ccccc1F)C(=O)Nc1nc2ccc(S(C)(=O)=O)cc2s1 (centres undefined) | 15% | 9
CC1=CC(C)(C)Nc2ccc(OC(=O)C(Cc3ccccc3)N3C(=O)C4CCCCC4C3=O)cc21 (centres undefined) | -3% | -2
COc1ccc(NC(=O)C2(C)CC3c4ccccc4C2c2ccccc23)c(OC)c1 (centres undefined) | 2% | -4
O=C(NS(=O)(=O)c1ccc(NC(=S)Nc2ccc(Br)cc2Cl)cc1)c1ccccc1 | 6% | -1
CCOC(=O)N1CCN(C(=S)NC2CCCC2)CC1 | -2% | 5
CC(C(=O)NCCN1CCCC1)(c1ccccc1)c1ccccc1 | 5% | 2
CCOC(=O)c1sc(NC(=O)C(CC)Sc2nc3ccccc3o2)nc1C (centres undefined) | 13% | -2
O=C(CSCc1ccccc1)Nc1ccc(Oc2ccc3c(c2)C(=O)NC3=O)cc1 | 0% | -12
Cn1cc(C(=O)NNC(=O)NC23CC4CC(CC(C4)C2)C3)c2ccccc21 | 5% | 3
CCCC(=O)c1ccc(N2CCN(C(=O)c3ccccc3Br)CC2)c(F)c1 | 2% | 4
CCCCOCCCNC(=O)C(C)CCC (centres undefined) | 2% | -9
O=C(NC(=S)Nc1ccc(S(=O)(=O)N2CCc3ccccc32)cc1)c1ccc(Br)o1 | 3% | 2
O=[N+]([O-])c1ccc(SCc2ccco2)c2cccnc12 | 123% | 37
O=C(Nc1ncc(Cc2cccc3ccccc23)s1)C1CCCCC1 | 9% | 26
Cc1cc(C(F)(F)F)nc(SCCN2CCCCC2)c1C#N | 11% | 4
Cc1cc(C)cc(CSCC(=O)N2CCN(C(=O)CSCc3cc(C)cc(C)c3)CC2)c1 | 18% | 2
Cc1ccn(C(=O)C(C)Oc2ccc(Cl)cc2Cl)n1 (centres undefined) | -3% | -2
O=C(Nc1ccc(N2CCOCC2)cc1)c1cnsn1 | 7% | 1
Nc1nc(CN2C(=O)c3ccccc3C2=O)cs1 | -1% | -4
CCOC(=O)C(=O)Nc1nc(C)cs1 | 12% | -2
COCCSc1nnc(NC(=O)CCSc2ccccc2)s1 | -23% | -11
Cc1ccc(CCC(=O)Nc2cc(C(F)(F)F)ccc2Cl)o1 | 7% | 21
CCc1ccc(N2CC(=O)N(C)C2=S)cc1 | 14% | 2
CCS(=O)(=O)c1ccsc1S(=O)(=O)CC | -20% | -11
COc1cc(C(=O)NNC(=S)NCC2CCCO2)cc(OC)c1OC (centres undefined) | -3% | -6
Cc1ccc(C(=O)Oc2ccc(C(=O)CSc3nc4ccccc4o3)cc2)cc1 | -13% | -7
Cc1ccc(C(C)C)cc1OCCN1CC(C)OC(C)C1 (centres undefined) | -7% | -6
COc1ccc(C(O)(C#Cc2ccccc2)c2ccccc2)cc1 (centres undefined) | 5% | -2
O=C(NC(=S)Nc1ccccc1I)c1ccco1 | -1% | 3
CCn1c(SCc2nc3ccccc3[nH]2)nc2cc(C(=O)OC)ccc2c1=O | 2% | 20
CCOc1cc(C2C(C#N)=C(N)SC(N)=C2C#N)ccc1OCCN1CCOCC1 | 3% | 1
Cc1cc(NC(=O)NCCCN2CCN(C3CCCCC3)CC2)ccc1Cl | 12% | 2
O=C(CCSc1ccc([N+](=O)[O-])cc1)NCC1CCCO1 (centres undefined) | 4% | -5
CCCCOc1cccc(-c2nnc(NC(=O)c3cccs3)s2)c1 | 4% | -4
CN1CCN(NC(=O)c2cc(Br)ccc2Cl)CC1 | -20% | -4
O=C(COc1ccc2ccccc2c1)Nc1ccc(I)c(C(=O)O)c1 | -6% | -3
N#Cc1c(C(F)(F)F)cc(-c2ccco2)nc1SCC(=O)OCc1ccccc1 | -13% | -2
O=C1NC(=O)C(=CN2CCC(Cc3ccccc3)CC2)C(=O)N1 | -5% | -2
CCOC(=O)CC1(C)OCC(C)(CC)CO1 (centres undefined) | 4% | -4
Nc1ccccc1NCCOc1ccccc1 | 20% | 3
O=C(N1CCCC1)n1c(Cc2ccccc2)nc2ccccc21 | 23% | 3
O=C(NCc1ccco1)c1ccc(Br)s1 | 19% | 15
O=C(CCSc1nc2ccccc2o1)Nc1ccccc1C(F)(F)F | -3% | -4

A draw from above in order of molar mass, lowest first.
SMILES | motility | motility viability
Nc1ccccc1NCCOc1ccccc1 | 20% | 3
CCOC(=O)CC1(C)OCC(C)(CC)CO1 (centres undefined) | 4% | -4
CCS(=O)(=O)c1ccsc1S(=O)(=O)CC | -20% | -11
O=C(NCc1ccco1)c1ccc(Br)s1 | 19% | 15
O=C(N1CCCC1)n1c(Cc2ccccc2)nc2ccccc21 | 23% | 3
O=C(CCSc1ccc([N+](=O)[O-])cc1)NCC1CCCO1 (centres undefined) | 4% | -5
O=C1NC(=O)C(=CN2CCC(Cc3ccccc3)CC2)C(=O)N1 | -5% | -2
COc1ccc(C(O)(C#Cc2ccccc2)c2ccccc2)cc1 (centres undefined) | 5% | -2
CN1CCN(NC(=O)c2cc(Br)ccc2Cl)CC1 | -20% | -4
CCCCOc1cccc(-c2nnc(NC(=O)c3cccs3)s2)c1 | 4% | -4
O=C(CCSc1nc2ccccc2o1)Nc1ccccc1C(F)(F)F | -3% | -4
COc1cc(C(=O)NNC(=S)NCC2CCCO2)cc(OC)c1OC (centres undefined) | -3% | -6
O=C(NC(=S)Nc1ccccc1I)c1ccco1 | -1% | 3
Cc1cc(NC(=O)NCCCN2CCN(C3CCCCC3)CC2)ccc1Cl | 12% | 2
Cc1ccc(C(=O)Oc2ccc(C(=O)CSc3nc4ccccc4o3)cc2)cc1 | -13% | -7
N#Cc1c(C(F)(F)F)cc(-c2ccco2)nc1SCC(=O)OCc1ccccc1 | -13% | -2
CCOc1cc(C2C(C#N)=C(N)SC(N)=C2C#N)ccc1OCCN1CCOCC1 | 3% | 1

(continued)
SMILES | motility | motility viability
CCOC(=O)N1CCC(NC(=O)c2sc3nc4c(c(C(F)(F)F)c3c2N)CC(C)CC4)CC1 (centres undefined) | 3% | 5
COc1ccc(NC(=O)NCCC2=CCCCC2)cc1OC | -1% | 25
COc1cc(CNc2ccc(N3CCCC3)cc2)ccc1OCc1ccccc1F | -6% | -2
O=C(NC(=S)NCC1CCCO1)c1ccccc1[N+](=O)[O-] (centres undefined) | 36% | 7
CCc1ccc2oc(-c3ccc(C)c(C(=O)N/C=C/c4ccco4)c3)nc2c1 | -6% | -5
Cc1cccc(N2CCN(C3=NC(=O)C(=C4CCCCC4)S3)CC2)c1 | 4% | 4
Cc1sc2nc(SCc3cc(=O)[nH][nH]3)nc(N)c2c1C | -13% | -8
O=C(c1ccncc1)N1CCN(Cc2ccco2)CC1 | -23% | -11
CSc1nc2nc(-c3ccccc3)cc(C(F)(F)F)n2n1 | 5% | 2
O=C(c1ccccc1NS(=O)(=O)c1ccccc1[N+](=O)[O-])N1CCOCC1 | -6% | 0
O=[N+]([O-])c1ccccc1-c1nnc(SCc2ccccc2Cl)o1 | 3% | -1
Cc1nc2ccc(C(C(F)(F)F)(C(F)(F)F)C(F)(F)F)cc2[nH]1 | 58% | 9
CC(C(=O)O)N1C(=O)C2C3C=CC(C4CC34)C2C1=O (centres undefined) | -8% | -4
Cc1cc(Br)cc(C)c1OCC(=O)NCCC1=CCCCC1 | 13% | 5
COc1ccc(Cl)cc1NC(=O)C12CCC(C)(C(=O)C1=O)C2(C)C (centres undefined) | 0% | -1
c1ccc(OCCCc2nc(-c3ccccn3)no2)cc1 | 2% | 1
CN(C)CCNC(=O)c1c[nH]c2ccccc12 | 16% | -5
Cc1noc(NS(=O)(=O)c2ccc(Nc3ncnc(N)c3[N+](=O)[O-])cc2)c1C | 4% | 2
CCOC(=O)c1ccc(NC(=S)NNc2nc(C)cc(C)n2)cc1 | 14% | 5
CCCSc1nnc2[nH]c(=O)cc(N)n12 | 12% | 6
COC(=O)c1ccccc1-c1ccc(NC(=O)C2C3CC4OC(=O)C2C4C3)cc1 (centres undefined) | 4% | 9
COc1ccc(NC(=S)Nc2ccc(Cl)cc2Cl)c(C)c1 | -17% | -3
O=C(NNC(=O)C1CC(=O)N(Cc2ccccc2)C1)c1ccc(Br)cc1 (centres undefined) | -2% | -3
Cc1nn(C)c(C(=O)NNC(=O)NC23CC4CC(CC(C4)C2)C3)c1Cl | 60% | 15
CCN1C(=O)N(CC)C2C1N(CC)C(=O)N2CC (centres undefined) | -3% | -2
Cc1nn(-c2ccc(Cl)c(C(=O)O)c2)c(C)c1[N+](=O)[O-] | 1% | -4
O=C(CCOc1ccccc1)Nc1ccc(Br)cc1 | -9% | -7
CN1CCN(c2ccc(/C=C(\C#N)C(N)=O)cc2[N+](=O)[O-])CC1 | 4% | 7
Cn1nc(CC(=O)Nc2ncc(Br)s2)c2ccccc2c1=O | -5% | -5
CC(O)C(=O)NS(=O)(=O)c1ccccc1 (centres undefined) | -5% | -1
COC(=O)N1CCN(c2ccc(Cl)c(Cl)c2)CC1 | 14% | 2
COc1ccc(-c2cc(C(F)(F)F)[nH]n2)cc1 | 32% | 9
Cc1c(NC(=O)c2ccc(Br)o2)c(=O)n(-c2ccccc2)n1C | -5% | -3
Oc1ccccc1-c1csc(N2CCc3ccccc32)n1 | -8% | -10
CCOc1ccc(C(=O)Nc2nc3c(Cl)cccc3s2)cc1Br | -3% | -8
Cc1occc1C(=O)Nc1ncccn1 | -2% | 1
c1ccc2c(c1)nc1n2CN(Cc2ccc3c(c2)OCO3)CN1 | 9% | 6
O=C(Oc1cccc(NC(=O)c2cccs2)c1)c1ccc(Br)c(S(=O)(=O)N2CCCCC2)c1 | -35% | -7
COc1cc2c(cc1OC)C(C)N(C(=O)c1cccc(Br)c1)CC2 (centres undefined) | 6% | -5
COc1cccc2c1NC(C)(C)C=C2C | -10% | -6
COc1cc2[nH]c(=O)n(C3CCCCC3)c(=O)c2cc1OC | -8% | -9
CC(=O)c1c(C)n([O-])c2cc(Cl)c(Cl)cc2[n+]1=O | 98% | 99
CC1(C)CC(Cc2nc(=S)[nH][nH]2)C(=O)O1 (centres undefined) | 2% | 0
Cc1ccc2c(c1)CCCN2C(=O)c1c(C)noc1C | 8% | -6
Cc1ccc(-c2nc3ncccc3o2)cc1NC(=O)c1ccc(-c2ccc(Br)cc2)o1 | -22% | -9
COc1ccc(CN2CCN(S(C)(=O)=O)CC2)cc1OCc1ccccc1 | 3% | -3
Cc1c(C(=O)Nn2cnnc2)oc2ccccc12 | 3% | 2
CCOC(=O)CSc1nc(C)c(C(=O)OCC)s1 | 19% | 25
COc1cc(OC)c(OC)cc1CN1CCN(C(=O)c2cccc3ccccc23)CC1 | 57% | 21
COc1ccc(Cl)cc1NC(=O)c1cc2nc(-c3ccco3)cc(C(F)(F)F)n2n1 | 6% | 7
Cc1noc(C)c1C(=O)Nc1c(F)cc(F)cc1Br | -14% | -1
Cc1cc2ncn(-c3ncnc4scc(-c5ccccc5)c34)c2cc1C | 26% | 5
N#CC1=C(S)NC(=O)CC1c1ccc(Br)cc1 (centres undefined) | 5% | 0
CCOc1cc(S(=O)(=O)n2ccnc2)ccc1Br | -12% | -1
O=C1CC(c2cc3c(cc2Br)OCO3)c2cc3c(cc2N1)CCC3 (centres undefined) | 6% | 31
S=c1[nH]nc(CSc2nc3ccccc3s2)o1 | 20% | 23
C=CCNC(=O)Cc1c(C)n(C(=O)c2ccc(Cl)cc2)c2ccc(OC)cc12 | 3% | 4
O=C(O)CSc1ccc(Oc2ccc(SCC(=O)O)cc2)cc1 | -2% | 1
O=C(NCc1ccccc1)C(=O)NCc1cccnc1 | 8% | -3
Cc1c(NC(=O)c2ccccc2SCc2ccccc2)c(=O)n(-c2ccccc2)n1C | 4% | -1

Remaining list, next part
SMILES | motility | motility viability
CCn1c(C)nc2cc(S(N)(=O)=O)ccc21 | 9% | 1
Cc1noc(C)c1C(=O)N1CCN(C(=O)c2sc3cc(Cl)ccc3c2Cl)CC1 | -3% | -4
Cc1ccc(S(=O)(=O)C2CS(=O)(=O)CC2O)cc1 (centres undefined) | -4% | -4
CS(=O)(=O)N1CCN(c2ccccc2NC(=O)c2cccnc2)CC1 | 5% | 4
CCCn1cc(NC(=O)C2CC(c3cccc(Br)c3)=NO2)cn1 (centres undefined) | 7% | 3
Cc1ccc(S(=O)(=O)c2cc3c(=O)n4cc(C)ccc4nc3n(C3CCCC3)c2=N)cc1 | 10% | 26
O=S(=O)(c1ccccc1)N1CCN(CC(O)COc2ccc3c(c2)CCC3)CC1 (centres undefined) | 16% | 4
O=C(O)CCSc1cc(-c2ccccc2)nc(SCCC(=O)O)n1 | -19% | -6
CC(C)OCC(O)CN1CCCCC1 (centres undefined) | -12% | -6
CC(=O)c1c(C)n(CC(=O)NCc2ccco2)c2ccccc12 | -2% | -5
CSc1ccccc1NC(=O)Cn1c(-c2cscn2)nc2ccccc21 | 2% | 0
CC(=O)c1ccc(NC(=S)N(C)N)cc1 | -13% | 11
CSc1nc(C)cc(Oc2ccc(=O)[nH]n2)n1 | 7% | 2
N/C(=N\OC(=O)c1cccc2ccccc12)c1ccc(Cl)cc1 | 1% | -1
CCCCOc1cccc(-c2nnc(NC(=O)OC)s2)c1 | -1% | -1
O=C(Nc1ccc(OC(F)(F)C(F)F)cc1)Nc1cccc(Cl)c1 | 19% | 24
COc1ccccc1CSc1ncc(-c2ccc([N+](=O)[O-])cc2)[nH]1 | 0% | -2
O=C(CN1CCN(C(=O)c2ccco2)CC1)Nc1ccc([N+](=O)[O-])cc1C(=O)c1ccccc1 | 1% | -4
Cc1cc(I)cc(C)c1NC(=O)CSc1nc2ccccc2[nH]1 | -10% | -9
NC(N)=NC(N)=Nc1ccccc1C(F)(F)F | 9% | 1
Cc1cc(Cl)ccc1NC(=O)COC(=O)c1ccccc1I | -16% | -9
COCCSc1ccccc1C(=O)NCc1ccc(S(N)(=O)=O)cc1 | 5% | 5
S=C(Nc1cccnc1)NC(c1ccccc1)c1ccccc1 | 29% | 5

Screening data from PubChem.
